# Rango-impB inh: Rango-importin beta binding inhibition; Rango CFP/YFP FRET sensor + importin beta, 45 min; Potency, µM (doses to about 92.2 µM), without a hit: top-dose inhibition of complex formation; 340,000 compounds, 0.031% hits; AID 540263; active = rising FRET ratio curve, often small or poorly fitted; inconclusive = mostly compound fluorescence or quenching in the first reads; inactive = flat curves in all reads;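 further: potency means the concentration at half of the fitted maximal effect; 0% = DMSO wells and 100% = buffer wells lacking importin beta; nearly all actives have a fitted effect of over 15% in size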
# Target sequence (Q14974 whole entry, looked up): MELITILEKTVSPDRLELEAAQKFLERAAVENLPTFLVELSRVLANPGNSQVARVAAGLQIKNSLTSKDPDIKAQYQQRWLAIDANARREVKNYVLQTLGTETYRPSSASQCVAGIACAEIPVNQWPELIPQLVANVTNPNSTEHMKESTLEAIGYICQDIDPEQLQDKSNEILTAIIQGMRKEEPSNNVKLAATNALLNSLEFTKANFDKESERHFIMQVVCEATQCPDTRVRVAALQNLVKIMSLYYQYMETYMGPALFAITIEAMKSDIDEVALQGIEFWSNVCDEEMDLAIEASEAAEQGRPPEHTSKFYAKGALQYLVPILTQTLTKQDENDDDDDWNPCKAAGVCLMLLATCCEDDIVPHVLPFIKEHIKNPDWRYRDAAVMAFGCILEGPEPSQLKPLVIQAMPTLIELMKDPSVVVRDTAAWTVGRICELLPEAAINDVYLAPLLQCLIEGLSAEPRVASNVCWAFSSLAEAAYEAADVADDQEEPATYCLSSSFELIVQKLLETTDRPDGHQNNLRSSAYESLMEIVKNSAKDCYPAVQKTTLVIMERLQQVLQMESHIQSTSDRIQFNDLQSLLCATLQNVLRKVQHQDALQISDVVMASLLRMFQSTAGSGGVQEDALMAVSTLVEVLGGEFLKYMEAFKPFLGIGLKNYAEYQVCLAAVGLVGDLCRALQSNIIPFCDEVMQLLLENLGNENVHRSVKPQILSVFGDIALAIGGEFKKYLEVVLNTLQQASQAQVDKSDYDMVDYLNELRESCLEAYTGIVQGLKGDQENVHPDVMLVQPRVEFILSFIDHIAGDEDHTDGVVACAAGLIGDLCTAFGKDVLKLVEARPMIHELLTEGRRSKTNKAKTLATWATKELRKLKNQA
#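 Inhibition scored from the CFP 486 nm/YFP 530 nm FRET ratio 45 min after adding 0.125 microM importin beta to 50 nM Rango biosensor preincubated 5 min with compound (room temperature, PBS with DTT, Tween-20, BSA). No-importin wells as positive control.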
# miR-21 reporter: raises the signal of a miR-21 reporter; HeLa miR-21 FLuc reporter, luciferase, 48 h; Potency, µM (series often up to 38.3 µM), for the others: at the highest dose reporter change, positive = more light; 340,000 tested, under 10 active; AID 2288; active = well fitted rising curve with a large enough effect; inconclusive = small, poorly fitted or top-dose-only effect; inactive = no such curve, though single readings can be large or run the other way;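 further: % of control where 0% means no effect; miR-21 action dims this reporter so a rising signal means less miR-21 action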
#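 Luminescence from a firefly luciferase reporter carrying a miR-21 binding site downstream, stably expressed under a CMV promoter in HeLa cells that make miR-21 endogenously, reports miRNA modulation after 48 h compound exposure up to approximately 40uM final.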
# Rango release inh: inhibition of RanGTP-driven Rango-importin beta dissociation; O95149+P62826; Potency, µM (titrated, usually from 46.1 µM), for inactives: at the top dose activity change, negative = inhibition; 340,000 compounds, 0.071% hits; Biochemical FRET Rango-importin beta, RanGTP-induced dissociation; active means falling FRET ratio curve, often poorly fitted, with flat reads before Ran was added; inconclusive means other falling curves, or compound fluorescence or quenching; inactive means flat or rising ratio curve;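 further: potency means the concentration at half of the fitted maximal effect; % of control where 0% means no effect; nearly all actives have a fitted effect of over 45% in size; -100% = wells without RanGTP and RCC1; the record marks most hits as doubtful in a second field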
#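 Quantitative HTS using a FRET biosensor: 0.1 uM Rango, 0.25 uM importin beta, 0.6 uM Ran, 2 mM GTP, 0.2 uM RCC1 final, PBS with DTT, Tween-20 and BSA. Post-read taken 45 min after Ran addition.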
# GLA inh pH 4.5: inhibitors of human alpha-galactosidase A at pH 4.5. P06280. purified enzyme, 4-MU-alpha-Gal fluorescence, pH 4.5. activity change, negative = inhibition, % at 105 µM. 230,000 tested, under 10 active. AID 1467; inconclusive = small, poorly fitted or top-dose-only inhibition, or a rising curve; inactive = flat fitted curve, though single readings scatter; no compound was filed as active;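 further: 0% = full activity with enzyme and -100% = basal without enzyme; dose as in the result columns while the protocol names 77 µM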
# Numbers without * were called inactive; ? = inconclusive; / = no result given; & = joins results of further samples; [ ] = remark or other dose. This is a subset. The share of hits here may be higher or lower than overall.
Rango-impB inh	miR-21 reporter	Rango release inh	GLA inh pH 4.5	Structure
?	2%	-19%	5	COc1ccc(NC(=O)CCC(=O)N/N=C/c2ccncc2)cc1
0.6%	-2%	3%	-20	COc1ccc2c(Cl)c(C(=O)OCC(=O)c3ccc4c(c3)NC(=O)CO4)sc2c1Cl
-1.1%	/	9%	/	COc1cc(C(C)=O)ccc1OCc1cn(CC(=O)c2ccc(O)cc2)nn1
1.9%	-1%	1%	-1	COc1ccc(S(=O)(=O)N(C)CC(=O)NCc2cccnc2)cc1Cl
?	/	-21%	/	CC(C)N(C(=O)[C@H]1C[C@H](CC(=O)NCCc2ccccn2)C(=O)N2CCc3c([nH]c4cc(-c5ccco5)ccc34)[C@]12C)C(C)C
-0.4%	?	3%	5	Cc1ccccc1OCC(=O)Nc1ccc(N2CCN(C(=O)C(C)C)CC2)c(Cl)c1
0.1%	-2%	-3%	3	CCCn1c(SCC(=O)Nc2cccc(C)n2)nnc1C(C)C
1.2%	/	-4%	/	Cc1ccc(S(=O)(=O)N(C)C)cc1NC(=O)c1cc(-c2ccncc2)nc2ccccc12
3.8%	0%	1%	/	C=CCn1c(N)cc(=O)nc1SC(C)C(=O)Nc1ccc(C(=O)OCC)cc1 (configuration not stated)
4.0%	/	13%	/	CN(CCc1ccccc1)C(=O)c1ccc(NC(=O)Cc2ccc(NC(=O)C3CCCN(C(=O)C4CCCCC4)C3)cc2)cc1 (configuration not stated)
1.0%	-6%	-11%	5	CCCCN(C(=O)c1cc(OC)c(OC)c(OC)c1)C1=CC2CCC(C1)N2C (configuration not stated)
-0.4%	-8%	-12%	0	O=C(CCS(=O)(=O)c1cccc2nonc12)NC1CCCCCC1
?	-11%	-12%	3	Cc1ccc(C(=O)N/C(=C/C=C\c2ccccc2)C(=O)NCc2ccco2)cc1
-0.5%	9%	9%	/	C/C(CC(=O)Nc1ccccc1C#N)=N\NC(=O)c1ccncc1
-5.3%	/	-6%	/	CC(OC(=O)CNC(=O)C1CCCCC1)C(=O)NCc1ccccc1 (configuration not stated)
-0.2%	-1%	-9%	-13	COc1ccc(CN(C2CCCC2)S(=O)(=O)c2ccc(-n3cnnn3)c(OC)c2)cc1OC
0.9%	17%	-14%	3	CC1(C)CC(=O)/C(=C\c2cccc([N+](=O)[O-])c2)C(C)(C)N1
0.1%	/	10%	/	Cc1cc(NC(=O)C(C)SCC(=O)OC(C)C(=O)Nc2ccc(F)cc2Cl)no1 (configuration not stated)
-4.4%	-1%&0%	-11%	/	O=C1Cc2cc(S(=O)(=O)N3CCN(c4ccccc4)CC3)ccc2N1
0.1%	-2%	-4%	1	CCOC(=O)C1CCN(C(=O)c2ccc(NC(=O)C3CCCO3)cc2)CC1 (configuration not stated)
5.1%	0%	9%	/	O=C(CCC(=O)N1CCOc2ccccc21)N1CCOCC1
?	-20%	?	/	CCOC(=O)NCc1ccc2[nH]c(C)cc2c1
?	/	?	/	CC(=O)Nc1ccc(C=NNc2ccc([N+](=O)[O-])cc2S(=O)(=O)Nc2ccccc2C(=O)O)cc1
-0.7%	0%	-6%	3	CC1(C)CC(=O)C(C=NCCO)=C(O)C1
?	-4%	7%	-6	O=C1CC(c2ccc(S(=O)(=O)N3CCCCC3)cc2)CN1 (configuration not stated)

# Reprinted from the part before: 6 entries, then new ones.
Rango-impB inh	miR-21 reporter	Rango release inh	GLA inh pH 4.5	Structure
0.1%	-2%	-4%	1	CCOC(=O)C1CCN(C(=O)c2ccc(NC(=O)C3CCCO3)cc2)CC1 (configuration not stated)
5.1%	0%	9%	/	O=C(CCC(=O)N1CCOc2ccccc21)N1CCOCC1
?	-20%	?	/	CCOC(=O)NCc1ccc2[nH]c(C)cc2c1
?	/	?	/	CC(=O)Nc1ccc(C=NNc2ccc([N+](=O)[O-])cc2S(=O)(=O)Nc2ccccc2C(=O)O)cc1
-0.7%	0%	-6%	3	CC1(C)CC(=O)C(C=NCCO)=C(O)C1
?	-4%	7%	-6	O=C1CC(c2ccc(S(=O)(=O)N3CCCCC3)cc2)CN1 (configuration not stated)
-1.9%	3%	-12%	/	CN1C(=O)c2ccccc2N(C)C1c1ccc(F)cc1 (configuration not stated)
3.2%	-2%	16%	-6	C=C(C)c1cccc(C(C)(C)NC(=O)Nc2nncs2)c1
0.5%	1%	-13%	3	CC(C)(Oc1ccc(Cl)cc1)C(=O)NCc1ccncc1
1.4%	-4%	9%	-2	CS(=O)(=O)c1cccc(C(=O)NCc2ccc(F)cc2)c1
-0.2%	-2%	-1%	/	COC(=O)Nc1ccc(S(=O)(=O)NNC(=O)c2c(O)c3ccccc3n(C)c2=O)cc1
5.4%	0%	-12%	/	CSCC[C@H](NC(=O)c1ccc2c(c1)OCO2)c1nnc2ccccn12
3.5%	-1%	-17%	/	Cc1ccc(NS(=O)(=O)c2ccc(-c3coc(C)n3)cc2)c(C)c1
2.4%	20%	3%	-1	CCCC(C)C(=O)Nc1nc(C)c(-c2csc(Nc3ccccc3OC)n2)s1 (configuration not stated)
-1.9%	/	-3%	/	Cc1csc(NC(=O)C(C)Oc2ccc(Br)cc2)n1 (configuration not stated)
-2.0%	1%	47%	9	COc1ccc(C2=NN(C(=O)CSc3nc4ccccc4s3)C(c3ccc(F)cc3)C2)cc1 (configuration not stated)
-1.9%	0%	19%	0	CN(Cc1ccccc1)S(=O)(=O)c1ccc2c(c1)n(C)c(=O)c(=O)n2C
-0.7%	-4%	-12%	/	CO/N=C(\c1ccccc1)c1cccnc1
-3.1%	-2%	2%	-5	Cc1cc(C)cc(C(=O)Nc2nnc(SCC(=O)N3CCCc4ccccc43)s2)c1
-2.5%	-13%	14%	4	CSc1ccccc1NC(=O)Cc1ccccc1
1.1%	-4%	8%	/	CCc1ccc(NC(=O)CCC(=O)Nc2nnc(C(C)C)s2)cc1
2.0%	-47%	8%	-12	Cc1ccc(Nc2nc(N)c([N+](=O)[O-])c(NCc3ccco3)n2)cc1C
2.8%	-8%	-12%	/	Cc1ccccc1C(=O)NNC(=O)c1ccncc1
2.8%	-8%	-11%	-4	NNC(=O)COc1ccc(C2SCCS2)cc1
4.5%	-3%	2%	7	CCCc1cc(=O)[nH]c(SCC(=O)Nc2ccccc2C#N)n1
0.4%	-61%	17%	/	COc1cccc(/C=N/NC(=O)c2cccc(N3CCCC3=O)c2)c1
-0.2%	-9%	3%	11	COc1ccccc1NC(=O)Nc1ccccc1SC
-1.5%	/	1%	/	O=C1C=C(c2cccc(Cl)c2)C[C@@H](c2ccc3c(c2)OCO3)C1
/	15%	/	-6[21.1 µM]	CC(C)c1ccc(S(=O)(=O)/N=C2/C=CC(=O)c3ccccc32)cc1
5.0%	-1%	16%	1	Cc1ccc(NC(=O)CSc2ccc(-c3ccco3)nn2)cc1
-3.7%	-41%	1%	-5	COc1ccc(CCNC(=O)c2nonc2N)cc1
0.7%	-22%	-14%	0	COCCCn1c(SCC(=O)Nc2sc3c(c2C#N)CCCC3)nnc1-c1ccncc1
/	0%	/	2	O=C(Cc1ccccc1)N[C@@H](Cc1ccc(O)cc1)C(=O)O
0.5%	4%	1%	/	CSc1ccc(CNC(=O)C2CCC(=O)N(Cc3cccc(F)c3)C2)cc1 (configuration not stated)
-1.2%	/	-11%	/	COc1cc(C(=O)N2CCC(N3CCCCCC3)CC2)cc(OC)c1OC
0.0%	/	11%	/	CN1CCC(N(C)S(=O)(=O)c2ccc(NC(=O)COc3ccc(Cl)cc3)cc2)CC1
-3.1%	11%	2%	-4	CCOc1ccccc1NC(=O)c1cccc(NC(=O)c2ccco2)c1
-1.9%	-8%	-15%	2	CCOc1cc(C=O)cc(Br)c1OCC(=O)NCCc1ccccc1
3.7%	11%	0%	/	Cc1cc(C)c(C)c(OCCCCN(C)Cc2ccccc2)c1
-0.3%	-6%	-2%	0	CCc1cccc2c(SC(C)C(=O)NCC3CCCO3)nc(-c3ccccc3)nc12 (configuration not stated)
4.8%	-43%	8%	-2	Cc1ccc2c(c1)c1c(n2C)-c2[nH]ncc2CC1
-0.1%	-2%	-6%	/	COc1ccc(NC(=O)c2ccc3c(c2)C(=O)N(CC2CCCO2)C3=O)cc1O (configuration not stated)
-1.6%	1%	-8%	-6	COCCCN(C(=O)Cn1ncc2c(=O)oc3ccc(C)cc3c21)C(C)c1ccncc1 (configuration not stated)
-0.2%	2%	11%	/	Cc1n[nH]c(C)c1CCNC(=O)C1CCC(=O)N(CCc2cccc(F)c2)C1 (configuration not stated)
4.1%	-17%	-3%	/	COC(=O)C(NC(=O)CCc1nnc2ccc(N3CCCCC3)nn12)C(C)C (configuration not stated)
3.1%	/	0%	/	CC(C)c1ccc(S(=O)(=O)N2CCN(C(=O)C3CC3C)CC2)cc1 (configuration not stated)
-1.5%	-54%	2%	-14	CCNC(=S)NNC(=O)c1csc(C(C)C)c1
-0.8%	-1%	26%	5	OCCNCc1cccc(Br)c1
1.2%	-4%	-9%	/	c1ccc(-c2ccccc2OCCOCCN2CCOCC2)cc1
?	-1%	0%	/	COc1cccc(CNC(=O)N2CCN(c3ccccc3)CC2)c1
3.1%	-1%	10%	4	O=C(C1CCN(C2CCN(CC3CC=CCC3)CC2)CC1)N1CCOCC1 (configuration not stated)
-0.3%	-4%	-20%	2	O=C(C1=C[C@H](c2ccc3c(c2)OCO3)C[C@H](OCCCCO)O1)N1CCN(Cc2ccccc2)CC1
0.7%	15%	-5%	/	COc1ccccc1OCc1ccc(C(=O)Nc2cc(OC)c(OC)c(OC)c2)o1
2.8%	-2%	-2%	-29	Cc1cccc(NC(=O)c2nc[nH]c2C(=O)N[C@@H](CC(C)C)C(=O)OC(C)(C)C)c1
1.4%	14%	3%	/	Cc1cccc(N2CCN(CCCNC(=O)c3ccc(NC(=O)C4=CSCCO4)cc3)CC2C)c1 (configuration not stated)
1.0%	-75%	3%	4	COc1ccc(OCCn2c(=O)sc3ccccc32)cc1

# Quoted at random: two entries already listed.
Rango-impB inh	miR-21 reporter	Rango release inh	GLA inh pH 4.5	Structure
2.4%	20%	3%	-1	CCCC(C)C(=O)Nc1nc(C)c(-c2csc(Nc3ccccc3OC)n2)s1 (configuration not stated)
-0.2%	-1%	-9%	-13	COc1ccc(CN(C2CCCC2)S(=O)(=O)c2ccc(-n3cnnn3)c(OC)c2)cc1OC

# (next part)
Rango-impB inh	miR-21 reporter	Rango release inh	GLA inh pH 4.5	Structure
-0.1%	-48%	2%	7	O=C(/C=C/c1c(F)cccc1Cl)Nc1ccncc1
-5.2%	19%	6%	-7	Cc1nn(Cc2ccc(Cl)c(Cl)c2)c(C)c1NC(=O)c1cc(C2CC2)on1
?	-6%	4%	-17	CCOC(=O)c1cnn(-c2ccccc2)c1NC(=O)CN1CCCCC1
-3.7%	-20%	-12%	2	Cc1ccccc1C(=O)Nc1nncs1
-1.9%	-3%	25%	-7	CC(CCn1cccn1)NC(=O)c1cc(COc2ccc(F)cc2Cl)on1 (configuration not stated)
5.7%	7%	3%	-8	O=C(O)CC1(CC(=O)Nc2ccc(F)c(Cl)c2)CCCCC1
-1.5%	0%	-7%	-1	COC(=O)C(Cc1ccccc1)NS(=O)(=O)c1ccc(F)cc1Br (configuration not stated)
3.0%	-4%	10%	5	N/C(=N\OC(=O)Oc1ccccc1)c1ccc(Cl)cc1
-4.8%	-19%	12%	5	Cc1ccc(Oc2cnn(-c3ccccc3)c(=O)c2Br)cc1
-3.8%	-4%	-17%	4	Cc1cccc(N(C(=O)Cc2cccs2)C(C(=O)NC2CCCC2)c2ccsc2)c1 (configuration not stated)
3.5%	-3%	?	/	COc1ccc(N2C(=NC(=O)C(C)Oc3ccccc3)SC3CS(=O)(=O)CC32)cc1 (configuration not stated)
3.9%	-5%	2%	-5	CC(=O)/C(=N/Nc1ccccc1Cl)Sc1nnc(C(O)c2ccccc2)n1-c1ccccc1 (configuration not stated)
-0.4%	-8%	12%	-9	COc1ccc(C(CC(=O)O)NC(=O)c2cccs2)cc1 (configuration not stated)
4.2%	/	-7%	/	O[C@@H](c1cc(C(F)(F)F)nc2c(C(F)(F)F)cccc12)[C@H]1CCCCN1
-0.6%	-4%	-11%	4	CCOC(=O)c1cc(C(=O)c2cc(F)ccc2O)coc1=N

# Compound activity deposited in PubChem by National Center for Advancing Translational Sciences (NCATS).
